# rRNA inh HTS: reduced GFP signal of wild-type E. coli, primary screen, bacterial rRNA inhibitor project, GFP/RFP fluorescence, OD600, single point | E. coli WT GFP vs humanized-ribosome RFP mutants, 24 h; stronger effect = lower value; DMSO median 0, no signal -100 | GFP signal change (wild-type ribosome), % (concentration not given with the values) | 350,000 tested, 1.6% active;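 active = significant combined selectivity score with lowered wild-type GFP, culture density cut under 30%, mutant RFP and density less affected; inactive = any of these conditions unmet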; note: one replicate is shown; some compounds called inactive have numbers as strong as hits
# FGF22 binding: binders of human FGF22 protein, primary screen, FGF22 synaptogenesis inhibitor project, biophysical, thermal shift, single point; 340,000 tested, 1.5% active; calls only at 9.99 µM; recombinant FGF22 thermal shift, SYPRO orange fluorescence; percent of sucrose octasulfate shift, DMSO zero; Fibroblast growth factor 22 (Homo sapiens), Q9HCT0; AID 651658, 2012;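 active = melting point raised past a set limit in the mean and every replicate; inconclusive = no clear call; three in four hits are not shown here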
# Target sequence (Q9HCT0 whole entry, looked up): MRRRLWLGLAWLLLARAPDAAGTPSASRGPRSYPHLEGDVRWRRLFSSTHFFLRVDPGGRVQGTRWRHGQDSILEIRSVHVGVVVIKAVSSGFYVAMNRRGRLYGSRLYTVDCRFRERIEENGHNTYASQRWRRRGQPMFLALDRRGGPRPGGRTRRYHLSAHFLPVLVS
# AF4-AF9 inh: inhibitors of AF4 peptide binding to AF9, primary screen, biochemical, AlphaScreen, biotin-AF4 peptide, FLAG-AF9, single point | Protein AF-9 (Homo sapiens), P42568 | 350,000 tested, 0.47% active | inhibition, % at 10 µM | AID 651704, 2012;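 active = every replicate reaching a set inhibition limit, whatever the replicate mean, cut at about 25% in these data; inconclusive = mean inhibition reaches that limit but some replicates miss it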;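 note: 0% = plate neutral control median and 100% = total signal loss; the record names both 10 and 1 µM as test concentration; the first replicate is given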
# Target sequence (P42568 whole entry, looked up): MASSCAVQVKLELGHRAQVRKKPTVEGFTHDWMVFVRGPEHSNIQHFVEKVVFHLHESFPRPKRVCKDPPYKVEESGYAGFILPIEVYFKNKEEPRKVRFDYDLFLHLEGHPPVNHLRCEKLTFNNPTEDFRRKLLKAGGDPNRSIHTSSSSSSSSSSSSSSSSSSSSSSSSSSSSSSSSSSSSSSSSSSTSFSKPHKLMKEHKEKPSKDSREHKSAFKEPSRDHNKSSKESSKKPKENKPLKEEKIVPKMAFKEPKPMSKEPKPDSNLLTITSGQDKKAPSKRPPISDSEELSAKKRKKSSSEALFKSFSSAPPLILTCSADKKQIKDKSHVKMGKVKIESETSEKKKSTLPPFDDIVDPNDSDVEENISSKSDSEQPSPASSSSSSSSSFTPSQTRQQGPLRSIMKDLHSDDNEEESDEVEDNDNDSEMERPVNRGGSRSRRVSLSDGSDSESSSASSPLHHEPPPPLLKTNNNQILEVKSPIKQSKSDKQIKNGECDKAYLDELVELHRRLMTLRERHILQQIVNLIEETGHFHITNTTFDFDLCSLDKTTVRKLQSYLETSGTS
# rRNA inh HTS OD600: also measured in rRNA inh HTS; calls as there; OD600 change, %; measured here: OD600 growth;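 optical density of the mix in the first replicate; 0 = DMSO median and -100 = no signal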
# rRNA inh HTS RFP: further read-out of rRNA inh HTS, marked with its call; RFP signal change, %; measured here: RFP humanized mutant strains;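 first replicate; 0 = DMSO median and -100 = no signal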
# Numbers without * were called inactive; i = inactive; ? = inconclusive; & = joins results of further samples. A portion of the library. The share of hits here may be higher or lower than overall.
SMILES,rRNA inh HTS,rRNA inh HTS OD600,rRNA inh HTS RFP,FGF22 binding,AF4-AF9 inh
C[C@H]1CCCCO[C@H](CN(C)C(=O)Nc2ccc(C(F)(F)F)cc2)[C@@H](C)CN([C@@H](C)CO)C(=O)c2cc(NC(=O)CCC(F)(F)F)ccc2O1,-2.0,-4.6,0.7,i,-0.2
CC(C)c1cn(CC[C@@H]2CC[C@H](NC(=O)C3CC3)[C@H](CO)O2)nn1,-1.9,3.2,6.4,i,0.1
C[C@H](CO)N1C[C@H](C)[C@H](CN(C)Cc2ccncc2)Oc2ccc(NC(=O)CCCCCC(=O)Nc3ccccc3N)cc2CC1=O,-3.1,4.6,-1.1,i,-8.8
CC(=O)Nc1cccc(-c2ccnc3c2CC(C(=O)Nc2ccc(F)c(Cl)c2)O3)c1 (centres undefined),-55.3,-71.6,-10.3,i,0.9
O=C(CC1SC(N2CCCC2)=NC1=O)Nc1ccc(C(=O)NCc2ccccc2F)cc1 (centres undefined),9.9,9.6,4.2,i,-6.7
CC1(C(=O)NS(=O)(=O)c2cccc(Cl)c2)CCN1C(=O)CCc1ccccc1 (centres undefined),9.8,29.4,0.4,i,-2.1
Cc1ccccc1-c1cnc2c(c1)C(=O)N([C@H](C)CO)C[C@@H](C)[C@H](CN(C)C(=O)c1ccncc1)O2,-1.5&9.5,6.0&13.9,-7.1&-0.6,i,-2.4&-2.9&-1.7
CN(C)C(=O)C[C@@H]1CC[C@@H](NC(=O)c2ccc(F)cc2)[C@H](CO)O1,1.4,-0.8,-0.1,i,-2.5
C[C@@H]1CN([C@H](C)CO)C(=O)c2cc(NC(=O)Cc3ccccc3)ccc2O[C@@H](C)CCCCO[C@@H]1CN(C)C(=O)CCC(F)(F)F,-0.2,-7.0,2.7,i,-0.8
COc1ccc2c3c([nH]c2c1)[C@@H](CO)N(C(=O)C1CCOCC1)CC31CCN(C)CC1,2.9,14.5,3.5,i,0.5
C[C@@H]1CN([C@H](C)CO)C(=O)c2cc(N(C)C)ccc2O[C@@H]1CN(C)C(=O)Nc1ccc(C(F)(F)F)cc1,-25.6,-28.9,5.0,i,2.7
O=C1CCCn2cc(nn2)COC[C@H](c2ccccc2)N1,1.5,-3.7,-1.0,i,?
NCC[C@H]1CC[C@@H](NC(=O)Cc2ccncc2)[C@@H](CO)O1,2.9,2.7,-2.7,i,1.0
C[C@H](CO)N1C[C@H](C)[C@@H](CN(C)CC2CCCCC2)Oc2ccc(NS(=O)(=O)c3ccc(F)cc3)cc2CC1=O,8.3,-7.3,7.1,i,1.5
O=S1(=O)CC(N2CCSCC2)CN1Cc1cn(Cc2ccc(F)cc2)nn1 (centres undefined),15.6,6.8,0.3,i,-0.7

# Entries listed so far that contain a Cl atom, in the order listed:
SMILES,rRNA inh HTS,rRNA inh HTS OD600,rRNA inh HTS RFP,FGF22 binding,AF4-AF9 inh
CC(=O)Nc1cccc(-c2ccnc3c2CC(C(=O)Nc2ccc(F)c(Cl)c2)O3)c1 (centres undefined),-55.3,-71.6,-10.3,i,0.9
CC1(C(=O)NS(=O)(=O)c2cccc(Cl)c2)CCN1C(=O)CCc1ccccc1 (centres undefined),9.8,29.4,0.4,i,-2.1

# Some of the entries above in another layout:
Compound: CC(C)c1cn(CC[C@@H]2CC[C@H](NC(=O)C3CC3)[C@H](CO)O2)nn1
  rRNA inh HTS = -1.9
  rRNA inh HTS OD600 = 3.2
  rRNA inh HTS RFP = 6.4
  FGF22 binding = i
  AF4-AF9 inh = 0.1
Compound: C[C@H](CO)N1C[C@H](C)[C@H](CN(C)Cc2ccncc2)Oc2ccc(NC(=O)CCCCCC(=O)Nc3ccccc3N)cc2CC1=O
  rRNA inh HTS = -3.1
  rRNA inh HTS OD600 = 4.6
  rRNA inh HTS RFP = -1.1
  FGF22 binding = i
  AF4-AF9 inh = -8.8

# Next part:
SMILES,rRNA inh HTS,rRNA inh HTS OD600,rRNA inh HTS RFP,FGF22 binding,AF4-AF9 inh
C[C@@H]1CN([C@H](C)CO)C(=O)c2cc(NC(=O)C3CCCCC3)ccc2O[C@@H](C)CCCCO[C@H]1CN(C)C(=O)Nc1cccc2ccccc12,0.8,8.0,1.2,i,-5.6
C[C@H](CO)N1C[C@H](C)[C@H](CN(C)CC2CCCCC2)Oc2ccc(NC(=O)Nc3ccc(F)cc3)cc2C1=O,1.6,-1.1,2.0,i,5.7
CC(C)NC(=O)N(C)C[C@@H]1Oc2c(NS(=O)(=O)c3cn(C)cn3)cccc2C(=O)N([C@H](C)CO)C[C@H]1C,1.1,4.0,-0.3,i,-3.1
CC(C)CC#Cc1cnc2c(c1)C(=O)N([C@H](C)CO)C[C@H](C)[C@@H](CN(C)C(=O)Cc1ccccc1)O2,-7.6,-8.8,2.4,i,1.3
O=S(=O)(N[C@@H]1CC[C@@H](CCn2cc(-c3cccnc3)nn2)O[C@@H]1CO)c1ccc(F)cc1,2.3,7.5,-1.9,i,-0.7
CN(C)CC(=O)Nc1ccc2c(c1)[C@H]1C[C@@H](CC(=O)N3CCN(C)CC3)O[C@H](CO)[C@H]1O2,3.9,9.1,-2.3,i,0.0
C[C@@H]1CN([C@@H](C)CO)C(=O)c2cccc(NS(=O)(=O)c3cccs3)c2O[C@H]1CN(C)C(=O)Nc1ccc2c(c1)OCO2,0.4,7.9,-0.7,i,-2.7
C[C@@H]1CN([C@H](C)CO)S(=O)(=O)c2ccc(C#Cc3ccccc3)cc2O[C@H]1CN(C)C,-1.3,-8.9,14.2,i,12.2
Cc1nc2ccc(C(=O)N3CCC(O)(Cc4ccccc4)CC3)cn2c1N(C)C(=O)CCc1ccccc1,3.8,5.8,1.8,i,-0.9
C[C@@H]1CN([C@@H](C)CO)C(=O)c2cc(NC(=O)Cc3cn(C)c4ccccc34)ccc2O[C@@H]1CN(C)S(=O)(=O)c1ccccc1,-0.4,-10.7,1.6,i,1.7
C[C@@H]1CN([C@H](C)CO)C(=O)c2cc(C#CC(C)(C)O)cnc2O[C@@H]1CN(C)C(=O)C1CCOCC1,2.8,11.7,-4.0,i,-2.7
CC(=O)Nc1ccc(NC(=O)C2(C)Cc3c(-c4cccc(C(N)=O)c4)ccnc3O2)cc1 (centres undefined),21.8,16.3,1.5,i,-0.2
O=C(NCC1CC1)[C@@H]1[C@@H](CO)[C@@H]2Cn3c(ccc(-c4ccccc4F)c3=O)[C@H]1N2Cc1cccnc1,0.0,2.8,1.6,i,0.6
COCC(=O)N(C)C[C@H]1Oc2cc(-c3ccncc3)ccc2S(=O)(=O)N([C@@H](C)CO)C[C@H]1C,5.3,-1.7,0.6,i,-3.2
CC(C)C[C@@H]1COCc2cn(nn2)CCCC(=O)N1,2.5,0.0,-1.8,i,-3.3
C/C=C/c1cnc2c(c1)C(=O)N([C@@H](C)CO)C[C@@H](C)[C@@H](CN(C)S(=O)(=O)c1ccc(F)cc1)O2,0.0,0.9,1.3,i,-4.8
O=[N+]([O-])c1ccc(COc2cccc(CN3CCCC3)c2)cc1,3.4,11.5,-3.0,i,0.5
O=C(c1ccncc1)N1CC[C@@H]2[C@H](CO)Nc3ccc(-c4ccc(F)cc4)cc3[C@@H]21,-1.7,-14.4,1.6,i,-0.4
C[C@@H]1CN([C@H](C)CO)C(=O)c2cccc(NC(=O)NC3CCCCC3)c2O[C@@H]1CN(C)C,1.1,-0.9,1.1,i,-2.3
O=C(C[C@H]1C=C[C@@H](NC(=O)NC2CCCC2)[C@@H](CO)O1)NCc1ccc(F)cc1,-0.6,-6.8,-1.2,i,-1.8
COC(=O)C1=C(C)N(Cc2ccccc2C(F)(F)F)C(=NCc2ccccc2C(F)(F)F)NC1c1ccc(F)cc1 (centres undefined),8.0,10.8,5.3,i,2.1
CCCNC(=O)N1C[C@H](C)[C@H](OC)CN(C)C(=O)c2ccc(NC(=O)CC)cc2OC[C@@H]1C,2.5,2.0,-0.2,i,0.3
C[C@H]1CCCCO[C@@H](CN(C)C(=O)Nc2ccccc2)[C@@H](C)CN([C@@H](C)CO)C(=O)c2cc(NC(=O)CCC(F)(F)F)ccc2O1,1.7,0.4,-1.4,i,-1.4
O=C(C[C@H]1C=C[C@@H](NS(=O)(=O)c2ccccc2F)[C@H](CO)O1)NCCCN1CCOCC1,3.6,1.3,2.5,i,-1.0
COc1ccccc1-c1ccc2c(c1)O[C@@H](CN(C)C(C)=O)[C@H](C)CN([C@@H](C)CO)S2(=O)=O,0.0,-4.1,-4.2,i,-1.9
C[C@H]1CCCCO[C@H](CN(C)C(=O)Nc2ccccc2)[C@@H](C)CN([C@@H](C)CO)C(=O)c2cc(NC(=O)c3ccccc3)ccc2O1,-2.0,-1.5,2.5,i,-0.5
Cc1ccc(S(=O)(=O)N(C)C[C@H]2Oc3c(NC(=O)c4cnccn4)cccc3C(=O)N([C@@H](C)CO)C[C@@H]2C)cc1,-0.6,7.8,-2.3,i,-1.3
CO[C@H]1CN(C)C(=O)c2cc(NS(C)(=O)=O)ccc2OC[C@@H](C)N(C(=O)CN(C)C)C[C@H]1C,2.8,-3.5,0.1,i,-2.0
COc1ccc(S(=O)(=O)N(C)C[C@H]2Oc3ccc(NC(=O)Nc4ccc(F)cc4)cc3C(=O)N([C@@H](C)CO)C[C@H]2C)cc1,-0.5,-20.1,-3.4,i,1.2
CCC(=O)N1C[C@@H]2[C@H](c3ccccc31)[C@H](CO)N2Cc1ccccc1Cl,-7.1,-8.8,-0.5,i,-0.4
CS(=O)(=O)N1CC2(C1)[C@H](c1ccccc1)[C@H](CO)N2C(=O)c1ccccc1,1.8,5.5,-1.3,i,-1.9
CCS(=O)(=O)N1CCC2(CC1)CN(Cc1ccccc1)[C@@H](CO)c1c2c2ccc(OC)cc2n1C,7.2,-13.8,0.8,i,0.2
COC(=O)[C@@]12C[C@@H](CC(=O)N3CCOCC3)C(=O)N(Cc3ccccc3)C1=CCC(C)(C)C2,7.1,0.0,0.3,i,-1.2
CC1(C(=O)NCc2ccccc2)CCC(=O)N1CC(F)(F)F (centres undefined),9.4,7.3,5.1,i,-3.3
CC(=O)NC(c1cccc(F)c1)c1nc(-c2ccc3ccccc3c2)cs1 (centres undefined),2.8,-4.8,-4.5,i,-0.4
O=C(c1cnccn1)N1CC[C@H]2[C@H](CO)Nc3ccc(C#Cc4cccnc4)cc3[C@H]21,-0.7,1.8,-5.0,i,0.3
COc1ccc(C#CC2=CC(=O)CC(C)(C)C2)cc1,8.6,-8.9,0.0,i,10.0
COc1cccc(-c2cnc3c(c2)C(=O)N([C@@H](C)CO)C[C@H](C)[C@H](CN(C)C(=O)Nc2ccccc2F)O3)c1,0.4,17.9,1.0,i,-0.7
CCC(=O)N[C@@H]1CC[C@H](CC(=O)NCc2ccccc2OC)O[C@@H]1CO,1.0,2.1,-1.4,i,-9.1
COc1cccc(C(=O)N2CCCc3ccccc32)c1OC,5.1,7.7,-0.7,i,-5.2
O=S(=O)(N[C@H]1CC[C@@H](CCn2cc(-c3ccccc3F)nn2)O[C@@H]1CO)c1ccc(Cl)cc1,-8.8,-9.2,7.8,i,2.2
C[C@@H]1CN([C@H](C)CO)C(=O)c2cc(NC(=O)CCCCCC(=O)Nc3ccccc3N)ccc2O[C@@H]1CN(C)S(C)(=O)=O,2.0,6.9,-0.7,i,-2.1
CCS(=O)(=O)N1CCC2(CC1)CN(S(=O)(=O)c1ccc(C)cc1)[C@H](CO)c1[nH]c3cc(OC)ccc3c12,-5.5,4.5,1.0,i,2.1
COc1ccc2c3c(n(C)c2c1)[C@@H](CO)N(C)CC31CN(S(C)(=O)=O)C1,5.2,8.1,-0.1,i,0.3
CO[C@H]1CN(C)C(=O)c2ccc(NC(=O)C3CCOCC3)cc2OC[C@@H](C)N(C(=O)c2ccccc2)C[C@H]1C,0.0,-1.1,-0.4,i,-0.8

# Structures listed so far with an NH in an aromatic ring (2):
SMILES,rRNA inh HTS,rRNA inh HTS OD600,rRNA inh HTS RFP,FGF22 binding,AF4-AF9 inh
COc1ccc2c3c([nH]c2c1)[C@@H](CO)N(C(=O)C1CCOCC1)CC31CCN(C)CC1,2.9,14.5,3.5,i,0.5
CCS(=O)(=O)N1CCC2(CC1)CN(S(=O)(=O)c1ccc(C)cc1)[C@H](CO)c1[nH]c3cc(OC)ccc3c12,-5.5,4.5,1.0,i,2.1

# More compounds follow:
SMILES,rRNA inh HTS,rRNA inh HTS OD600,rRNA inh HTS RFP,FGF22 binding,AF4-AF9 inh
COc1cccc(C(=O)c2ccccc2NC(C)=O)c1,11.2,14.4,0.0,i,2.7
C/C=C/c1ccc2c(c1)O[C@@H](CN(C)Cc1cncnc1)[C@H](C)CN([C@H](C)CO)S2(=O)=O,-5.8,-11.9,-3.1,i,6.6
CCCCN(C)c1c(C)nc2ccc(C(=O)NCc3cccs3)cn12,-12.0,-31.1,-4.2,i,-6.8
COc1ccccc1NC(=O)N[C@@H]1C=C[C@@H](CC(=O)NCc2ccc(Cl)c(Cl)c2)O[C@@H]1CO,0.9,2.7,0.2,i,-2.9
CCCC#Cc1cnc2c(c1)C(=O)N([C@@H](C)CO)C[C@H](C)[C@H](CN(C)C(=O)c1cnccn1)O2,5.5,1.4,-0.7,i,-5.6
